Source: PubChem
Mtb hypoxia inh – inhibitors of hypoxia-regulated fluorescent reporter in Mycobacterium tuberculosis; M. tuberculosis hypoxia-regulated fluorescent reporter, fluorescence; fluorescence inhibition, % (concentration not given with the values); actives 0.1% (n = 300,000);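 active means 35 to 45% if threefold the growth effect, above 45% if 1.5-fold the growth effect; inactive means the rest, general growth blockers included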;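 further: wells of about 50 µL received 100 nL stock; 0% = vehicle wells and 100% = reference inhibitor wells; whole bacteria with a GFP reporter of the hypoxia response; strong numbers were not always called active; many hits fall short of the cut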
PrP UTR inh – suppresses PrP 5' UTR mRNA reporter expression; cell-based PrP 5' UTR mRNA reporter, plate reader; actives 0.35% (n = 340,000); inhibition, % (test concentration not listed);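 active means every replicate at 50% or more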;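 further: 0 = median of the neutral control wells; tested in H4 reporter cells; numbers are from one replicate; inactives centre near -14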
BJeLR viability – kills HRASV12-expressing BJeLR cells; BJeLR (HRASV12) viability, CellTiter-Glo ATP luminescence, 48 h; reference of the scale not given here; actives 0.17% (n = 300,000); inhibition, % (no concentration beside the values);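 active means replicate mean above 50%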;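 further: 50 nL library stock added to about 25 µL; numbers are from one replicate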
Sa RN4220 lethal – S. aureus RN4220 growth inhibition; OD600, 16 h; inhibition, % (concentration not given with the values); actives 0.33% (n = 330,000);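 active means z-score of -3 or lower and OD600 up to 0.18 on both plates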;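 further: plate controls were untreated cells for no effect and reference antibiotic for full effect; stock transfer was 100 nL into about 80 µL; one replicate is shown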
Sa ugtP lethal – compounds lethal to S. aureus RN4220 ugtP deletion mutant; OD600 growth, 16 h; some inactives read as strong as hits; growth inhibition, % (no concentration beside the values); actives 0.54% (n = 330,000);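 active means z-score under -3 and OD600 up to 0.15 on both plates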;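 further: plate controls were untreated wells for no effect and antibiotic for full effect; wells of about 80 µL received 100 nL stock; the first replicate is given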
Bead autofluor – counter-screen for toxin protease inhibitors: compound fluorescence; actives 3.1% (n = 360,000); compound autofluorescence counterscreen, microsphere flow cytometry; hits give high values; fluorescence intensity (no concentration beside the values); AID 624483;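 active means at least 3 SD above the mean of all compounds, about 16000 in these data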;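 further: 100 nL of 1 mM stock went into each well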
Mtb hypoxia inh growth – further read-out of Mtb hypoxia inh, marked with its call; growth inhibition, %; measured here: M. tuberculosis growth (absorbance);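 0% = vehicle and 100% = reference antibiotic; read after six days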
* hit, by the source's call; . = not tested or not shown.

SMILES | Mtb hypoxia inh | Mtb hypoxia inh growth | PrP UTR inh | BJeLR viability | Sa RN4220 lethal | Sa ugtP lethal | Bead autofluor
Cc1c(C(=O)OCC(=O)NCc2ccccc2)oc2ccccc12 | 8 | 6 | -20 | -11 | 1.6 | 2 | 4019
Cc1nc(NN=Cc2ccc(Br)cc2)cc(N2CCOCC2)n1 | -2 | 6 | . | . | 0.3 | -2 | .
CC1CCC2C(=O)N(c3ccc(Cc4ccncc4)cc3)C(=O)C2C1 (centres undefined) | 5 | 0 | -19 | 2 | 6.7 | 5 | 4485
COc1ccccc1CNC(=O)C(NC(=O)c1ccccc1)C(C)C (centres undefined) | -19 | 1 | -4 | -4 | 0.5 | 1 | 4521
CCOc1ccc2[nH]cc(-c3csc(N)n3)c2c1 | 17 | 9 | -13 | 2 | -0.3 | -6 | 2613
O=[N+]([O-])c1cccc(SSc2cccc([N+](=O)[O-])c2)c1 | 15 | 11 | -7 | . | 43 | 84 | 4038
O=[N+]([O-])c1cc(C=NNc2nc(-c3ccccc3)cs2)ccc1O | 7 | 3 | . | . | 22 | 15 | .
C=CCNC(=O)c1ccccc1NC(=O)c1ccc(Cl)c(S(=O)(=O)Nc2ccccc2)c1 | 2 | 4 | -38 | 1 | -3.1 | 22 | 7266
Cc1ccnc2nc(C(=O)N3CCN(S(=O)(=O)c4ccccc4)CC3)nn12 | 8 | 2 | -6 | -1 | 7.7 | 8 | 3403
COc1ccc(N2CCN(C(=O)CN3C(=O)NC4(CCCCCC4)C3=O)CC2)cc1 | -5 | -7 | 4 | . | -0.6 | 1 | .
Cc1cccc(CSc2cn(CC(=O)N3CCOCC3)c3ccccc23)c1 | 16 | 7 | -40 | 5 | 11 | 7 | 11501
O=C(C1CCC1)N1CCc2cc(S(=O)(=O)Nc3ccc4c(c3)OCO4)ccc21 | . | . | -5 | 6 | 4.7 | 3 | 3643
O=C(N/N=C/c1c[nH]c2ccccc12)C1CC1c1ccccc1 (centres undefined) | . | . | -5 | 7 | . | . | 2511
O=C(CCCC(=O)OCC1CCCO1)OCC1CCCO1 (centres undefined) | . | . | -3 | -8 | -0.1 | 7 | 2395
C/C(=N\NC(=O)NC1CCCCC1)c1ccco1 | . | . | -19 | -1 | . | . | 3456

Molecules listed so far that have a carbonyl joined to an NH by a bond outside any ring (5):
SMILES | Mtb hypoxia inh | Mtb hypoxia inh growth | PrP UTR inh | BJeLR viability | Sa RN4220 lethal | Sa ugtP lethal | Bead autofluor
Cc1c(C(=O)OCC(=O)NCc2ccccc2)oc2ccccc12 | 8 | 6 | -20 | -11 | 1.6 | 2 | 4019
COc1ccccc1CNC(=O)C(NC(=O)c1ccccc1)C(C)C (centres undefined) | -19 | 1 | -4 | -4 | 0.5 | 1 | 4521
C=CCNC(=O)c1ccccc1NC(=O)c1ccc(Cl)c(S(=O)(=O)Nc2ccccc2)c1 | 2 | 4 | -38 | 1 | -3.1 | 22 | 7266
O=C(N/N=C/c1c[nH]c2ccccc12)C1CC1c1ccccc1 (centres undefined) | . | . | -5 | 7 | . | . | 2511
C/C(=N\NC(=O)NC1CCCCC1)c1ccco1 | . | . | -19 | -1 | . | . | 3456

Other structures.
SMILES | Mtb hypoxia inh | Mtb hypoxia inh growth | PrP UTR inh | BJeLR viability | Sa RN4220 lethal | Sa ugtP lethal | Bead autofluor
O=C(Nc1ccccc1C(=O)NCCCn1ccnc1)c1ccc(Cl)cc1Cl | -1 | 14 | 2 | 2 | -0.3 | -5 | 3150
Cc1ccc2cc(N)ccc2n1 | 11 | 3 | -33 | . | -0.3 | 7 | 3714
O=C(COc1ccc2c3c(c(=O)oc2c1)CCC3)NCCN1CCOCC1 | 12 | 2 | -12 | 3 | 0.7 | 6 | 5904
CCOc1ccc(NC(=O)C2CCCN(C(=O)NCc3ccccc3)C2)cc1 (centres undefined) | 6 | 8 | -16 | 5 | 0.4 | 2 | 4274
Cc1ccc([C@H]2C(C#N)=C(N)Oc3cc(C)oc(=O)c32)o1 | 15 | 5 | -33 | -11 | 14 | 13 | 2267
O=C(CCNC(=O)Cn1ccc2ccccc2c1=O)NCCCN1CCN(c2ccccc2F)CC1 | . | . | -17 | -8 | 0.4 | 7 | .
CCC(C)NC(=O)c1ccc2c(c1)N(Cc1ccccc1)C(=O)CS2 (centres undefined) | -2 | -4 | -8 | 4 | 4.3 | 1 | 3175
O=C(CN1CCCCC1)N1c2ccccc2Sc2ccc(C(F)(F)F)cc21 | 0 | 8 | -2 | . | 2.9 | 32 | 3014
CC1CCCCN1CCNC(=O)c1ccc2c(c1)N(Cc1ccccc1F)C(=O)c1ccccc1S2=O (centres undefined) | -11 | -7 | -13 | 8 | 11 | -6 | 9600
CC(=O)Nc1cc(-c2nn(CC(=O)N3CCCCC3)c(=O)c3ccccc23)ccc1N1CCOCC1 | 6 | 2 | -19 | 3 | 1.2 | 11 | 10719
CC(=O)Nc1ccc(NC(=O)C(C)OC(=O)CCN=C2NS(=O)(=O)c3ccccc32)cc1 (centres undefined) | -7 | -4 | -25 | -19 | 1.8 | -1 | 5621
COC(=O)c1ccc(C23CC4(C2)C(CN(Cc2cccnc2)C4c2ccccc2)C3c2ccc(Cl)nc2)cc1 (centres undefined) | 2 | 14 | . | . | -6.1 | 9 | .
C(=N\Nc1nc(Nc2ccccc2)nc(Nc2ccccc2)n1)/c1ccncc1 | . | . | -22 | 4 | . | . | 2271
COCCCNC(=S)N1CCC(NC(=O)Nc2ccc(C)cc2)CC1 | -2 | 9 | -12 | -7 | -1.5 | -11 | 3119
CCS(=O)(=O)c1ccc2oc(SCC(=O)Nc3ccc(OC)cc3OC)nc2c1 | 11 | -2 | -14 | -1 | 4.1 | 7 | 5026
O=C(Cc1ccccc1)NCC(=O)N/N=C/c1ccc([N+](=O)[O-])s1 | . | . | -13 | 7 | . | . | 5551
Cc1cc(C(=O)NCc2ccc(F)cc2)c2ccccc2n1 | 4 | 3 | -13 | 1 | 7.3 | -3 | 3943
COc1cccc(C(=O)CN(C(=O)c2ccc(Cl)c(Cl)c2)N2C(=O)c3ccccc3C2=O)c1 | 2 | 1 | -18 | -3 | 0.5 | 4 | 16849*
CC(C)C(c1nnnn1Cc1ccccc1)N1CCc2ccccc2C1 (centres undefined) | 1 | 1 | -6 | -1 | 7.9 | -1 | 10038
COc1ccc(Nc2nc(-c3cccs3)nc3ccccc23)c(OC)c1 | 2 | -4 | -9 | 3 | -1.8 | 28 | 2030
COc1ccc(Nc2cc(C)nc3nc(C)nn23)cc1Cl | . | . | -6 | -7 | 5.1 | 0 | 6301
Cn1c(CC(=O)Nc2ccccc2F)nnc1SCC(=O)NC1CCCCC1 | 10 | 1 | -22 | 1 | 1.3 | 3 | 3512
c1ccc(SCc2nc(-c3cccnc3)no2)cc1 | 6 | 5 | -34 | 7 | 4.3 | -4 | 2349
CCOC(=O)C1=NN(c2ccccc2)C(=O)/C1=C\c1ccc(N(C)C)cc1 | . | . | -5 | -4 | -6.1 | -3 | 3058
c1ccc(Cn2nnnc2CN2CCN(Cc3ccc4c(c3)OCO4)CC2)cc1 | . | . | -34 | -8 | 2.1 | 2 | 2129
CCc1cccc(CC)c1NC(=O)COC(=O)Cc1ccsc1 | 10 | 0 | -3 | -13 | 7.6 | 3 | 1931
COc1ccccc1CNC(=O)c1ccc(N(C)S(=O)(=O)c2ccc(C)cc2)cc1 | . | . | -9 | -9 | . | . | 5785
O=C(Nc1cccc(-c2ccc(N3CCCCC3)nn2)c1)c1ccc(Br)o1 | 3 | -2 | -73 | 5 | 8.2 | -15 | 5966
Cc1cnc(NC(=O)c2sc3ccccc3c2Cl)s1 | -3 | 3 | 26 | -1 | 3.3 | 0 | 1939
C=CCNC(=O)COC(=O)c1c2c(nc3ccccc13)CCC2 | 9 | 1 | 2 | -7 | 4.3 | -4 | 4498

Two records picked at random from those above, as already listed:
SMILES | Mtb hypoxia inh | Mtb hypoxia inh growth | PrP UTR inh | BJeLR viability | Sa RN4220 lethal | Sa ugtP lethal | Bead autofluor
COc1ccc(Nc2cc(C)nc3nc(C)nn23)cc1Cl | . | . | -6 | -7 | 5.1 | 0 | 6301
Cc1cc(C(=O)NCc2ccc(F)cc2)c2ccccc2n1 | 4 | 3 | -13 | 1 | 7.3 | -3 | 3943

(next part)
SMILES | Mtb hypoxia inh | Mtb hypoxia inh growth | PrP UTR inh | BJeLR viability | Sa RN4220 lethal | Sa ugtP lethal | Bead autofluor
CCCCN(C)C(=O)C1CCN(Cc2ccc(OCc3ccccc3)cc2)CC1 | 17 | 18 | -25 | 4 | 1.6 | -10 | 3197
COc1ccc(-n2cnnc2SCC(=O)NC2CCCc3ccccc32)cc1 (centres undefined) | 1 | 5 | -8 | -1 | -2.3 | -1 | 1955
N#CC(=CC=Cc1ccccc1)c1nc(-c2ccc3c(c2)OCO3)cs1 | 3 | 2 | . | . | 7.1 | 0 | .
O=C(O)C1Cc2[nH]cnc2C(c2cccc([N+](=O)[O-])c2)N1 (centres undefined) | -1 | 1 | 6 | -1 | 1.3 | 4 | 4585
CC1CCN(c2ccc(C(=O)Nc3ccc4c(c3)OCO4)cc2[N+](=O)[O-])CC1 | 12 | 7 | -6 | 7 | -9.9 | -10 | 2295
Cc1ccc(NC(=O)c2ccc(=O)[nH]n2)cc1S(=O)(=O)Nc1ccccc1Cl | 2 | 1 | -22 | . | 7.5 | -1 | 6772
COc1ccc(N(C)S(=O)(=O)c2cccc(C(=O)NCc3ccc(C)cc3)c2)cc1 | 10 | 5 | -6 | . | -4.4 | -2 | 8682
COc1ccc(C2=Nn3c(nnc3-c3ccccc3OC)SC2)cc1OC1CCCC1 | 7 | 2 | 64* | . | 4.5 | 4 | 2892
CCOc1ccc2nc(CN3CCN(Cc4ccsc4)C(CCO)C3)ccc2c1 (centres undefined) | 5 | 2 | 0 | 10 | 0.4 | 11 | 3248
O=C(Nc1ccc(O)cc1)c1c(O)c2c([nH]c1=O)CCCC2 | 4 | 1 | -109 | 7 | 4.2 | 6 | 3543
COc1ccc(NC(=O)CSc2nc3ccccc3c(=O)n2CCCO)cn1 | 8 | 0 | -20 | . | 1.0 | 7 | 3771
CCOc1ccc2c(=O)c(Oc3ccccc3)c(C)oc2c1 | 7 | 9 | -14 | -2 | 0.9 | 3 | 2541
Cc1ccc(CNC(=O)CNS(=O)(=O)c2ccc3c(c2)C(C)(C)C(=O)N3C)cc1 | -6 | -8 | -21 | -22 | 3.7 | -4 | 5638
CCOc1ccc(C(C(=O)NCCOC)N(CCOC)C(=O)CCC(=O)Nc2ccccn2)cc1 (centres undefined) | 4 | 5 | -5 | 0 | 2.4 | 2 | 3682
O=C(CCN1C(=O)C2C3C=CC(C3)C2C1=O)N1CCN(c2ccccc2Cl)CC1 (centres undefined) | . | . | -41 | -7 | -8.4 | 11 | 2680
CCOC(=O)N1CCC(NC(=O)c2ccc3c(c2)N=C(C)c2c(C)ccc(C)c2S3)CC1 | 0 | -3 | 21 | 34 | 3.2 | -12 | 6131
O=C(O)c1ccc(Cl)c(N2C(=O)Nc3ccccc3N2O)c1 | -2 | -5 | -33 | 8 | 4.6 | -8 | 4273
Cc1cccc(NS(=O)(=O)c2cc(C(=O)OC(C)C(=O)NCc3ccc4c(c3)OCO4)ccc2C)c1 (centres undefined) | 10 | 11 | -13 | -2 | -0.1 | -7 | 2536
O=C1C(Cl)=C(Nc2ccccc2O)C(=O)N1c1ccccc1 | 25 | 19 | -33 | -19 | 10 | -8 | 9150
Cc1ccccc1C(=O)NC(C)c1ccc2c(c1)CCCC2 (centres undefined) | 5 | 1 | -6 | 16 | 9.0 | -5 | 2565
COc1ccc2oc(C(=O)N(C)CCOc3ccccc3)c(C)c2c1 | 13 | 5 | -14 | -3 | 7.3 | 2 | 5931
COc1ccc(-c2cc(C(=O)OCC(=O)N3CCOCC3)c3ccccc3n2)cc1 | 4 | 9 | -14 | . | 1.2 | 4 | 2945
CC(=O)Nc1ccc(S(=O)(=O)Nc2ccc(N3CCCCC3)cc2)cc1 | . | . | -21 | . | 0.6 | 1 | 3938
Cc1ccccc1S(=O)(=O)Cc1ccc(C(=O)NCCc2ccccc2)o1 | 18 | 5 | -12 | 2 | 5.3 | 2 | 5616
O=C(c1sc2ccccc2c1Cl)N(Cc1ccccc1Cl)C1CCS(=O)(=O)C1 (centres undefined) | 6 | 8 | 4 | 5 | 5.1 | -11 | 22430*
COc1ccc(-c2onc3ccc(C(C)=O)cc23)cc1 | . | . | -10 | -6 | . | . | 3822
Cc1cccc(Nc2nccc(N(C)C)c2C#N)c1 | 18 | 6 | -28 | 4 | 2.9 | 5 | 4624
Cc1cccc(-n2ncc3c(N)ncnc32)c1 | . | . | -27 | 2 | 4.2 | 12 | 3308
CCOc1ccc(CCNC(=O)CCc2nc(-c3ccc(OC)cc3)no2)cc1OCC | . | . | -7 | 3 | 1.1 | 8 | 4725
